Source: PubChem
Rce1 inhib: yeast Ras-converting enzyme inhibition | Q03530 | yeast membranes, quenched prenylated peptide cleavage fluorescence | calls only | 290,000 tested, 0.27% active | AID 2563;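 active = fall in fluorescence gain of 50% or more versus controls, with final raw signal at or below 3038400; inconclusive = same 50% fall but final raw signal above 3038400; inactive = fall in fluorescence gain under 50%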;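 note: plate controls were neutral control wells for no effect and wells lacking membranes for full effect; tested at 10 µM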
HIV Env fusion: HIV envelope-mediated fusion inhibition. AID 651610. inhibition, % at 12.3 µM. HeLa-JRFL Env/CEM21 cell fusion, luciferase. 360,000 tested, 1.1% active;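 active = mean replicate inhibition score of at least 50 and every replicate individually at or above 50; inconclusive = only one of the two criteria met; inactive = mean below 50 and not all replicates reaching 50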;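 note: 0% = plate neutral controls and 100% = maraviroc near 300 nM; one replicate is shown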
PABP polyA inh: PABP-poly(A) binding inhibition; P11940; PABP-poly(A) RNA binding, fluorescence polarization; inhibition, % at 35 µM; 290,000 tested, 1% active;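 active = 50% or more with normal probe brightness, or confirmed in later tests; inconclusive = above 50% with abnormal brightness, or retests that disagree; inactive = below 50% or failed in later tests; about a fifth of its hits are not listed in these tables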;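 note: calls also rest on retests at 20 µM and on dose response follow-up; controls were probe without protein and protein plus probe with vehicle; some compounds called inactive have numbers as strong as hits; many hits fall short of the cut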
Target sequence (P11940 whole entry, looked up): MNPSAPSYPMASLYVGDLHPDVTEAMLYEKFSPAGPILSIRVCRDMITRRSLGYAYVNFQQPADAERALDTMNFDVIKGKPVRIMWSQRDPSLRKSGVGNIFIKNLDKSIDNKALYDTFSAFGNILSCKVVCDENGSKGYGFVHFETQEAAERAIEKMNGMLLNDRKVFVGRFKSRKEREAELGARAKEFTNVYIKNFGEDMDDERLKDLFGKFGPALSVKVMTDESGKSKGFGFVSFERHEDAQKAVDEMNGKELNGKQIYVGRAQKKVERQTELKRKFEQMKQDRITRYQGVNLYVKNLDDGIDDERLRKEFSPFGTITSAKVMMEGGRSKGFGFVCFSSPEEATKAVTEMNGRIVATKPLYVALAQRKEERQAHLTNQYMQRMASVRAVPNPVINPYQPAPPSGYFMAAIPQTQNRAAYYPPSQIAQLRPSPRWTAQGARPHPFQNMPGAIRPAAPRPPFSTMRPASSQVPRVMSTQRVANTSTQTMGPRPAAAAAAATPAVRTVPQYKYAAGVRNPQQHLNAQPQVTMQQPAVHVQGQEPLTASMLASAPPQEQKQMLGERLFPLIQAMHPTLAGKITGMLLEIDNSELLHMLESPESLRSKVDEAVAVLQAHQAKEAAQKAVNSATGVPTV
MT1-MMP act inh: MT1-MMP (human) activation inhibition. 360,000 tested, 0.061% active. GFP/RFP ratio change, % at 20 µM. P50281. HT1080 RFP-PRO-GFP cells, GFP/RFP ratio fluorescence, overnight; percent of plate control window, DMSO zero. AID 651647;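 active = GFP/RFP ratio change of at least 30% with cell ATP level not reduced by more than half and red fluorescence within 50% of control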; note: strong numbers were not always called active
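Assay system: HT1080 RFP-PRO-GFP cells. Benchmarks: DMSO vehicle wells and RFP-L50D-GFP reporter cell wells. Times: overnight cell settling, then overnight compound exposure, 37 °C, 5% CO2. Compound: 20 µM single dose, 1% DMSO. Read-out basis: GFP/RFP fluorescence ratio.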
eIF4H inh: inhibitors of RNA binding by human eIF4H; inhibition, % at 35 µM; 290,000 tested, 0.94% active; AID 2012; eIF4H fluorescence polarization binding assay;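 active = 50% or more with normal probe brightness, or confirmed in later tests; inconclusive = above 50% with abnormal brightness, or retests that disagree; inactive = below 50% or failed in later tests; about a fifth of its hits are not listed in these tables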;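 note: calls also rest on retests at 20 µM and on dose response follow-up; 0% = protein and probe with vehicle and 100% = probe without protein; strong numbers were not always called active; many hits fall short of the cut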
CSC inhib: cancer stem cell inhibition; cancer stem cell-like cells viability, luminescence; inhibition, % at 7.5 µM; 300,000 tested, 1.1% active; AID 2717;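 active = mean at 75% or more and at least half the replicates too; inconclusive = mean and replicates disagree; tested in HMLE shEcad cells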;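 note: 0% = median of negative and 100% = median of positive control wells; the first replicate is given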
Yeast UUG start: alters start codon recognition fidelity in yeast; AID 602363; activity score, % at 18.7 µM; S. cerevisiae UUG-firefly luciferase reporter, luminescence/redox ratio; 350,000 tested, 0.13% active;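 active = replicate mean at a twofold rise or more, about +100% in these data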;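 note: firefly luciferase made from a UUG start codon reports start codon fidelity; reporter light over untreated wells divided by growth signal over untreated wells; some hits fall short of that in this replicate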
eIF4H inh retest: further read-out of eIF4H inh, marked with its call; inhibition, %; compound at 20 µM; confirmation average;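 mean of two retest wells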
PABP polyA inh retest: further read-out of PABP polyA inh, marked with its call; inhibition, %; compound at 20 µM; confirmation repeats;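 mean of two retest wells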
MT1-MMP act inh RFP: further read-out of MT1-MMP act inh, marked with its call; RFP signal change, %; measured here: RFP expression control read;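 0 = vehicle wells; hits needed this value within 50% of zero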
The depositor's hits bear a star; i = inactive; u = inconclusive; x = no result given; & = joins results of further samples.

SMILES	Rce1 inhib	HIV Env fusion	PABP polyA inh	MT1-MMP act inh	MT1-MMP act inh RFP	eIF4H inh	CSC inhib	Yeast UUG start	others
COc1ccccc1CNC(=O)C1CCC1	i	-15	7	3	5	-10	2	x
Cc1ccc(NC(=O)COc2coc(CN3CCN(c4ccccc4)CC3)cc2=O)cc1	i	x	x	-2	-6	x	0	-19
CC(C)(C)N1CC(C(=O)Nc2ccc(S(=O)(=O)N3CCCCC3)cc2)CC1=O (stereo unspecified)	i	0	x	-2	3	x	-15	-17
CN(C(=O)c1ccc2c(=O)n3c(nc2c1)CCCCC3)c1ccccc1F	i	-6	-5	-1	1	0	-10	-10
NS(=O)(=O)c1ccc(CCNc2ccccc2[N+](=O)[O-])cc1	i	-34	-1	2	1	-2	-2	2
CCOc1ccccc1N1CCN(Cc2cccc(OC)c2O)CC1	i	10	13	-3	-1	2	0	x
Cc1ccc2nc(-c3ccc(NC(=S)NC4CC(C)(C)NC(C)(C)C4)cc3)sc2c1	i	-106	7	-6	-6	0	4	-1
COc1ccc(NC(=O)c2ccco2)cc1NC(=O)c1cccc(F)c1	i	-18	2	1	1	-5	x	-10
CCOc1cc(NC(=O)c2ccccn2)c(OCC)cc1NC(=O)c1ccc(Cl)cc1	i	5	-5	1	-3	-4	-5	-3
Cc1ccc(C)c(C(C)NC(=O)Cc2cccs2)c1 (stereo unspecified)	i	12	4	-1	4	1	-3	-18
Cc1ccc(-c2nn(C)c(=O)c3ccccc23)cc1CNC(=O)CN1CCOCC1	i	x	-3	-3	-4	-6	-15	-11
CCCN1C(=O)/C(=N\OCC(=O)NC23CC4CC(CC(C4)C2)C3)c2ccccc21	i	16	1	-4	-8	-3	-9	5
COc1ccc(NS(=O)(=O)c2cc(NC(=O)c3cccs3)ccc2N2CCOCC2)cc1	i	-77	-13	0	-7	6	38	-24
CCCCS(=O)Cc1ccccc1 (stereo unspecified)	i	x	0	-5	2	-10	-15	-10
CCOC(=O)C1(C)CCCN(C(=O)c2ccccc2)C1 (stereo unspecified)	x	15	x	-4	-2	x	x	-6
O=C1N(Cc2cccc(Cl)c2)C[C@@H]2C[C@@H](c3cccc4ncccc34)N3CCC[C@@]123	i	26	2	-1	-12	2	x	-14
CCN1CCN(c2cc(C)c3cc(NC(=S)NCCCOC)ccc3n2)CC1	i	-2	-6	-5	-3	0	5	-19
O=C(Nc1ccc(N2CCN(C(=O)c3cccs3)CC2)cc1)c1cccc(F)c1	i	-9	9	-6	-4	2	32	-2
Cc1ccc(SSc2cc(C)ccc2N)c(N)c1	i	-34	x	10	4	x	10	-19
Cc1cc(C)cc(N(CC(=O)NC2CCCCC2)C(=O)CNC(=O)c2ccco2)c1	i	-12	5	1	0	7	-11	-9
COc1ccccc1N(CN1CCCC1=O)C(=O)c1c(F)cccc1Cl	i	-16	-1	4	4	4	-11	-17
CCc1nc2ccc(C(=O)N(C)Cc3ccco3)cn2c1N(C)Cc1ccc(OC)cc1	x	15	x	-5	0	x	x	-13
COC(=O)c1ccccc1NC(=O)Cn1cc2c(n1)CCC(C)C2 (stereo unspecified)	i	17	-5	1	-4	-6	-18	0
CCOC(=O)C1CCCN(Cc2nc(N)nc(Nc3ccccc3)n2)C1 (stereo unspecified)	i	x	-2	5	3	-8	-8	-20
CCOc1ccc(C(C)(O)CN2CCOCC2)cc1 (stereo unspecified)	i	-82	3	0	-1	-8	6	-8
Cc1c(N(C(=O)CNC(=O)c2ccccc2)C2(C(=O)NC3CCCCC3)CCCCC2)c(=O)n(-c2ccccc2)n1C	i	-8	-5	0	3	4	-11	2
COc1ccc(-c2csc(Nc3cccc(C)n3)n2)cc1C	i	-121	-2	-6	-6	-10	14	-17
CC(Nc1nc(-c2ccccc2F)nc2ccccc12)c1ccccc1 (stereo unspecified)	i	4	-9	-7	-5	0	27	-7
COc1cccc(C2CC(c3ccc(Cl)cc3Cl)Nc3nc(N)nn32)c1 (stereo unspecified)	i	x	1	5	0	-6	-7	-6
CCOC(=O)c1c(C)oc2c(CC(=O)c3ccccc3)c(Cl)c(O)c(O)c12	i	u	-4	5	2	-1	12	-6
Cc1n[nH]c(=S)n1/N=C/c1ccc(OCc2ccc(Cl)cc2Cl)cc1	i	-46	4	6	-2	8	14	-18
CC(C)NC(=O)Nc1ccc2c(c1)C(=O)N([C@H](C)CO)C[C@H](C)[C@@H](CN(C)C(=O)NC(C)C)O2	x	-18	x	0	3	x	x	-8&-11
Cc1ccc(F)cc1NC(=O)c1ccc2c(c1)OCO2	i	-17	-8	-7	0	-4	-13	3
CNC(=S)NCCC(c1ccccc1)c1ccccc1	i	26	-6	-10	-9	6	x	x
CN1CCCC(OC(=O)c2ccccc2F)C1 (stereo unspecified)	i	6	-1	2	3	-4	-13	-5
CCOc1ccc(CCNC(=O)CCC(=O)N2CCSc3ccccc32)cc1OCC	i	45	8	6	2	-2	x	0
CNC(=S)Nc1ccc(C)cc1	i	27	-9	-1	-2	-6	12	x
COC(=O)C1=C(C)N(C)C(C)=C(C(=O)OC)C1c1cccc(Br)c1	i	x	2	1	-2	8	-16	-9
CCOC(=O)[C@@H]1[C@H]2COc3ccccc3[C@@H]2N2C(=O)N(c3ccccc3)C(=O)[C@]12C	i	1	4	0	5	-5	-5	0
O=C(CC1Sc2ccccc2NC1=O)OCC(=O)N1CCc2ccccc21 (stereo unspecified)	i	-73	-4	7	-3	1	-8	-7
COCCCNc1nc(-c2ccc(Cl)cc2)nc2ccccc12	x	11	-22	1	1	-9	58	-6
COC(=O)c1cc2ccccc2c(-c2c(OC)c(C(=O)OC)cc3ccccc23)c1OC	i	27	21	8	-15	14	21	25
COC(=O)c1c(C)nc(C)c(C(=O)OC)c1-c1ccc(OC)c(OC)c1	i	-5	2	5	2	5	10	x
Nc1c(N2CCCCC2)c2ccccc2oc1=O	i	-8	-4	0	4	-3	9	x
CC1CC(C)CN(C(=S)NC2CCCCC2)C1 (stereo unspecified)	i	15	4	1	2	-13	-15	x
CCCC(=O)Nc1nnc(SCC(=O)NCc2cccs2)s1	i	-99	-2	-8	-2	-8	-11	1
Cc1ccc(CNC(=O)CCc2c(C)nn(-c3ccc(N4CCOCC4)nn3)c2C)cc1	i	-9	-6	-1	4	2	16	-20
COc1ccc(CN2C(=O)CCC2(C)C(=O)NC2CCCCCC2)cc1 (stereo unspecified)	i	-17	-7	-9	-4	2	-6	-13
CCC(c1nnnn1Cc1cccs1)N1CCN(C2CCCC2)CC1 (stereo unspecified)	i	x	-6	1	5	-3	39	-23
Cc1sc(NC(=O)c2ccc(=O)n(C)n2)nc1-c1ccccc1	i	-14	6	3	3	5	2	9

A draw from above in order of molar mass, highest first.
SMILES	Rce1 inhib	HIV Env fusion	PABP polyA inh	MT1-MMP act inh	MT1-MMP act inh RFP	eIF4H inh	CSC inhib	Yeast UUG start	others
CC(C)NC(=O)Nc1ccc2c(c1)C(=O)N([C@H](C)CO)C[C@H](C)[C@@H](CN(C)C(=O)NC(C)C)O2	x	-18	x	0	3	x	x	-8&-11
CCOc1cc(NC(=O)c2ccccn2)c(OCC)cc1NC(=O)c1ccc(Cl)cc1	i	5	-5	1	-3	-4	-5	-3
CCN1CCN(c2cc(C)c3cc(NC(=S)NCCCOC)ccc3n2)CC1	i	-2	-6	-5	-3	0	5	-19

Continued.
SMILES	Rce1 inhib	HIV Env fusion	PABP polyA inh	MT1-MMP act inh	MT1-MMP act inh RFP	eIF4H inh	CSC inhib	Yeast UUG start	others
COc1cccc(-c2c(-c3cc(OC)cc(OC)c3)n(C)c3ccc(-c4cccc5[nH]ccc45)cc23)c1	x	-25	x	-14	-10	x	22	-15
COc1ccc(/C=C2\SC(=S)N(CC(=O)NCCO)C2=O)cc1	i	11	-15	-1	5	2	-26	x
CCCc1nnc(NC(=O)CCC(=O)NCCc2ccc(Cl)cc2)s1	i	6	-6	3	5	-10	-4	-18
CCCCNC(=S)NC(=O)c1ccc([N+](=O)[O-])cc1	i	x	3	3	0	4	-4	-27
CN1CCN(c2ncnc3c2ncn3[C@H]2CN(Cc3ccccc3)C[C@@H](CO)O2)CC1	x	5	x	3	4	x	x	-27
COc1ccc(NC(=O)c2cccc(N3C(=O)c4ccc(C(=O)Nc5ccc(OC)c(O)c5)cc4C3=O)c2)cc1O	i	18	19	-3	3	8	0	-9
Cn1c(=O)c2c(ncn2CCC(=O)N/N=C/c2cccnc2)n(C)c1=O	i	-1	5	-1	6	-3	-5	15
Cc1[nH]c2ccccc2c1C(=O)C(=O)NCc1ccncc1	i	-12	x	-1	-5	x	-9	-25
COc1ccc(NC(=O)c2cc(S(=O)(=O)N3CCCCC3)ccc2N2CCCCC2)cn1	i	5	8	-3	1	5	9	-8
CCCCCCCC[n+]1cccc2c3ccccc3ccc21	i	84*	6	-32	-39	0	32	x
Cc1cc2c(nn1)CCC/C2=N\O	i	x	11	0	5	-9	-9	-7
CN(CCCOc1ccccc1Br)Cc1ccccc1	i	-1	-1	0	-2	3	6	x
COc1ccccc1COCC(O)CNCC1(N2CCCCC2)CCCCC1 (stereo unspecified)	i	-2	-1	-7	-2	-1	-8	-9
CCOC(=O)C(/C=C(\C#N)C(=O)OCC)=C(/N)N1CCN(c2ccccc2)CC1	i	x	-7	1	2	-3	8	13
S=C(NCCCN1CCOCC1)NCCCN1CCOCC1	i	-24	2	0	1	-11	-10	-20
CCOc1ccc(NC(=O)Nc2ccc(Cc3ccncc3)cc2)cc1	i	-2	6	-12	-13	-4	80*	-12
CCOC(=O)c1cc2c(ccn2C)n1CC(=O)N1C(C)CCCC1C (stereo unspecified)	x	11	25	-1	-3	74	-6	x	eIF4H inh retest=11;PABP polyA inh retest=31
CCC1CCc2c(sc(NC(C)=O)c2C#N)C1 (stereo unspecified)	i	x	-18	4	-2	4	17	-10
COc1ccccc1S(=O)(=O)Cc1ccc(C(=O)NCc2ccc(C)cc2)o1	i	4	0	3	0	0	-10	x
O=[N+]([O-])c1ccc(OCCO)nc1	i	-7	13	-1	0	-5	-11	-21
Cc1ccccc1NC(=O)/C(=C\c1cccs1)NC(=O)c1ccco1	i	-78	10	4	2	2	-15	x
CCCCC(=O)Nc1ccc2c(c1)C(=O)NC2=O	i	x	-4	-2	2	-11	-4	-13
COc1ccc(C)cc1N(CC(=O)Nc1cccnc1)S(=O)(=O)c1ccccc1	i	-7	-6	2	1	3	-15	x
O=C(c1cnc2n(c1=O)CCS2)N1CCN(c2ccc([N+](=O)[O-])cc2)CC1	i	-19	-9	-1	2	-10	-9	-11
CCC1(c2ccc(F)cc2)NC(=O)N(CC(=O)Nc2cccnc2Cl)C1=O (stereo unspecified)	i	-31	x	0	-2	x	x	-9
COC(=O)c1ccccc1NC(=O)CN1CCC(n2nnc3cc(F)ccc32)CC1	i	-27	4	-4	-2	-7	-15	-1
CC(=O)OCC1=C(C(=O)O)N2C(=O)C(NC(=O)CCn3nc(C(F)(F)F)c(Br)c3C3CC3)C2SC1 (stereo unspecified)	i	1	-12	-5	5	6	0	x
O=C(Nc1ccc2[nH]c(=O)[nH]c2c1)c1cc(F)c(F)cc1Cl	i	-3	2	2	1	-2	-15	-7

The order is random. Share with any hit: about 2.9%.
